Anaer choline gr = choline-fed anaerobic bacterial growth inhibition; 55,000 compounds, 0.2% hits; Gram-negative bacterium anaerobic choline minimal medium, absorbance growth; stronger effect = lower value; many inactives read as strong as hits in the columns shown; AID 1963822; calls only;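 active = growth z-score on choline under -2 at 7 or 20 h with little or no fall on glycerol, limits in tiers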;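 also: stock transfer was 300 nL into about 50 µL; the organism is E. coli; final concentration not given here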
Anaer choline gr early = further read-out of Anaer choline gr, marked with its call; z-score; measured here: choline growth z-score, timepoint 1;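 score of optical density at 7 h as mean of two plates; lower means less growth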
The depositor's hits bear a star; & = joins results of further samples. The list is partial; the hit share may differ from the screen's.

For COc1ccccc1OCC(=O)NCC(c1ccccc1)c1c[nH]c2ccccc12 (stereo unspecified) the results were Anaer choline gr inactive and Anaer choline gr early 1.2.
For c1nc2nc3c(c(NC4CCCCCCC4)n2n1)CCC3 the results were Anaer choline gr inactive and Anaer choline gr early 1.5.
Screening Cc1cc(-c2cc(S(=O)(=O)NCCc3sccc3C)c(C)s2)on1 returned Anaer choline gr inactive and Anaer choline gr early 2.
For O=C(NCC1CCCO1)c1nn(-c2ccc(Cl)cc2)nc1CO (stereo unspecified) the results were Anaer choline gr inactive and Anaer choline gr early 0.14.
For CCc1nnc(-c2coc(S(=O)(=O)N3CCN(C4CCCCC4)CC3)c2)o1 the results were Anaer choline gr inactive and Anaer choline gr early -2.1.
`O=C(CN1CCn2nc(-c3ccccc3)cc2C1=O)N1CCOCC1` gave Anaer choline gr inactive and Anaer choline gr early 1.
For CN(C)c1ccc(C2N3CC4(C)CN2CC(C)(C3)C4O)cc1 (stereo unspecified) the results were Anaer choline gr inactive and Anaer choline gr early 0.19.
For COc1ccc(N2CCN(c3nccn4nc(-c5ccc(C)cc5)cc34)CC2)cc1 the results were Anaer choline gr inactive and Anaer choline gr early 0.69.
`Cc1ccc(COCc2nn(C)c3c2CN(S(=O)(=O)c2ccc(C)cc2)CC3)cc1` gave Anaer choline gr inactive and Anaer choline gr early 0.41.
For CC(=O)N[C@@H](CCC(N)=O)C(=O)O the results were Anaer choline gr inactive and Anaer choline gr early -0.02.
CC(C)NC(=O)C1=CSCCO1 was read as Anaer choline gr inactive and Anaer choline gr early -0.33.
For O=C(c1cnn2c1CCCC2)N1CCCC1 the results were Anaer choline gr inactive and Anaer choline gr early 0.54.
`O=C(c1ccc2c(c1)OCO2)N1CCc2c([nH]c3ccccc23)C1c1ccccc1` (stereo unspecified) gave Anaer choline gr inactive and Anaer choline gr early 0.22.
O=C(Nc1ccc(F)cc1)C1Oc2ccccc2NC1=O (stereo unspecified) was read as Anaer choline gr inactive and Anaer choline gr early -1.3.
`O=S(=O)(c1ccc(F)cc1)N1CCc2cc3ccccc3nc21` gave Anaer choline gr inactive and Anaer choline gr early 1.3.
CC(C)NC(=O)CCCCn1c(=O)c2ccccc2n(CC(=O)Nc2ccccc2Cl)c1=O was read as Anaer choline gr inactive and Anaer choline gr early 0.66.
For O=C1CC(c2ccc(Br)cc2)c2c(-c3ccccc3)nn(-c3ccccc3)c2N1 (stereo unspecified) the results were Anaer choline gr inactive and Anaer choline gr early 0.77.
Screening Cc1nc(C)c(-c2nc(-c3ccc4c(c3)Sc3ccccc3C(=O)N4C3CC3)no2)s1 returned Anaer choline gr inactive and Anaer choline gr early -0.46.
For Cc1cc(C2CCCN2C(=O)c2cc(C3CCCCC3)no2)on1 (stereo unspecified) the results were Anaer choline gr inactive and Anaer choline gr early -0.04.
Screening Fc1ccc(-c2ccc(CNCc3ccco3)o2)cc1 returned Anaer choline gr inactive and Anaer choline gr early -1.9.
CCCNc1cc(C(C)(C)C)nc2c(-c3ccc(F)cc3)c(C)nn12 was read as Anaer choline gr inactive and Anaer choline gr early 1.3.
For CC(C)NC(=O)CCCCn1c(=O)c2ccccc2n(CC(=O)NCc2ccc3c(c2)OCO3)c1=O the results were Anaer choline gr inactive and Anaer choline gr early 1.2.
`Cc1cc(C(=O)NCc2ccc3c(c2)OCO3)c2c(=O)n(C)c(=O)n(C)c2n1` gave Anaer choline gr inactive and Anaer choline gr early 0.39.
For O=S(=O)(Nc1ccc(Cl)cn1)c1cc(-c2noc(C3CCC3)n2)cs1 the results were Anaer choline gr inactive and Anaer choline gr early -0.06.
Screening Cc1cc(N2CCN(C)CC2)n2nc(CN3CCCC(C)C3)nc2n1 (stereo unspecified) returned Anaer choline gr inactive and Anaer choline gr early 0.77.
For O=C1CN(Cc2cccc(Cl)c2)S(=O)(=O)c2ccccc2N1Cc1ccc(Cl)cc1 the results were Anaer choline gr inactive and Anaer choline gr early 0.3.
Screening O=C(NCCn1c(C(F)(F)F)nc2cccnc21)Nc1ccc2c(c1)OCCO2 returned Anaer choline gr inactive and Anaer choline gr early -0.81.
Screening COc1ccc(CNC(=O)c2ccc(Cl)c(-n3c(C)nc4cccnc43)c2)c(OC)c1 returned Anaer choline gr inactive and Anaer choline gr early 0.22.
For O=C(CN1C(=O)c2ccccc2Sc2ncccc21)N1CCN(c2ccc(Cl)cc2)CC1 the results were Anaer choline gr inactive and Anaer choline gr early -2.5.
O=C(C1=Cc2cc(Cl)ccc2OC=C1)N1CCOCC1 was read as Anaer choline gr inactive and Anaer choline gr early 2.4.
Cc1nn(C)c(C)c1CCN(C)C(=O)Nc1ccccc1Br was read as Anaer choline gr inactive and Anaer choline gr early -1.8.
Screening CCOCCCNC(=O)c1ccc(-n2nnc3cccnc32)cc1 returned Anaer choline gr inactive and Anaer choline gr early -1.3.
For CC(C)CC(=O)Nc1cccc(N2CCn3c(nc4cc(Cl)ccc43)C2)c1 the results were Anaer choline gr inactive and Anaer choline gr early -0.62.
COc1ccc(NC(=O)c2sc3nc4n(c(=O)c3c2C)CCCCC4)c(OC)c1 was read as Anaer choline gr inactive and Anaer choline gr early 0.63.
For Cn1c(O)c(C2=NNC(c3ccc4c(c3)OCO4)C2)c(=O)n(C)c1=O (stereo unspecified) the results were Anaer choline gr inactive and Anaer choline gr early 0.87.
Cc1c(-c2nc(-c3ccc4c(c3)OCO4)no2)oc2ccc(S(=O)(=O)N3CCOCC3)cc12 was read as Anaer choline gr inactive and Anaer choline gr early -0.14.
COc1ccc(-c2nnc(SCc3cc(=O)n4c(C)csc4n3)o2)cc1 was read as Anaer choline gr inactive and Anaer choline gr early -0.2.
Screening COc1ccc(C(=O)Nc2nnc(Cc3nc4ccccc4[nH]3)s2)cc1Br returned Anaer choline gr inactive and Anaer choline gr early 0.14.
OCC(CO)NC1C[C@@](O)(CO)C(O)C(O)C1O (stereo partly specified) was read as Anaer choline gr inactive and Anaer choline gr early 0.8.
Screening CC(=O)Nc1ccc(NS(=O)(=O)c2ccc3c(c2)CCCC(=O)N3)cc1 returned Anaer choline gr inactive and Anaer choline gr early -0.69.
For CCCCn1c(O)c(C2=NN(C(=O)CC)C(c3ccc4c(c3)OCO4)C2)c(=O)[nH]c1=S (stereo unspecified) the results were Anaer choline gr inactive and Anaer choline gr early 1.3.
For CCCn1c(CCc2ccccc2NS(=O)(=O)c2cnc[nH]2)nc2ccccc21 the results were Anaer choline gr inactive and Anaer choline gr early -0.13.
Screening Cc1nn(-c2nc3ccccc3o2)c2c1C(c1ccc(F)c(F)c1)CC(=O)N2 (stereo unspecified) returned Anaer choline gr inactive and Anaer choline gr early -1.9.
O=C(C1CCN(c2nccc(N3CCCC3)n2)CC1)N1CCC2(CC1)OCCO2 was read as Anaer choline gr inactive and Anaer choline gr early -0.03.
`N#C/C(=C\c1ccc(O)c(O)c1)C(=O)Nc1ccccc1` gave Anaer choline gr inactive and Anaer choline gr early -0.58.
`O=C(NCCC1=CCCCC1)c1ccc(Nc2ccnc(-c3ccc(F)cc3)n2)cc1` gave Anaer choline gr inactive and Anaer choline gr early 1.1.
For Cc1ccc(-c2cc(C(=O)NCc3ccc4c(c3)OCO4)[nH]n2)cc1 the results were Anaer choline gr inactive and Anaer choline gr early 0.17.
`CN(C)C(=O)Oc1cccc([N+](C)(C)C)c1` gave Anaer choline gr inactive and Anaer choline gr early -1.4&0.29&0.09.
`CN1CCc2cc3c(cc2C(=O)Cc2ccc4c(c2C1)OCO4)OCO3` gave Anaer choline gr inactive and Anaer choline gr early 0.97.
CN(CC1CCCO1)S(=O)(=O)c1ccc(C(=O)Nc2nc(-c3cccnc3)cs2)cc1 (stereo unspecified) was read as Anaer choline gr inactive and Anaer choline gr early -0.5.
For CCOC(=O)c1c(C)[nH]c(C(=O)N2CCC(CC(=O)NC(C)c3ccccc3)CC2)c1C (stereo unspecified) the results were Anaer choline gr inactive and Anaer choline gr early 0.97.
For Cc1ccc(CN2CCN(C3CCN(S(=O)(=O)c4ccc(C)cc4C)CC3)C(=O)C2=O)cc1 the results were Anaer choline gr inactive and Anaer choline gr early 0.78.
Screening O=C(CCSCc1cnn(-c2ccccc2)c1-n1cccc1)N1CCN(C2CCCCC2)CC1 returned Anaer choline gr inactive and Anaer choline gr early -1.9.
Cc1cccc(NC(=O)c2sc3nc(-c4ccc(F)cc4)cn3c2C)c1C was read as Anaer choline gr inactive and Anaer choline gr early 0.21.
Screening CCN(CC)CCNc1ncnc2c1nnn2C returned Anaer choline gr inactive and Anaer choline gr early -1.2.
`Cc1ccc(S(=O)(=O)c2c(C)cc(C)n(CC(=O)Nc3ccc(F)c(F)c3)c2=O)cc1` gave Anaer choline gr inactive and Anaer choline gr early 0.59.
Cc1ccsc1CC1C(=O)Nc2c(C)cccc21 (stereo unspecified) was read as Anaer choline gr inactive and Anaer choline gr early -0.8.
For O=C(OCC1CCCO1)c1ccc2c(c1)N(Cc1ccc(F)cc1)C(=O)c1ccccc1S2 (stereo unspecified) the results were Anaer choline gr inactive and Anaer choline gr early 1.8.
`CCOc1ccc2ncc3c(-c4ccc(F)cc4)n[nH]c3c2c1` gave Anaer choline gr inactive and Anaer choline gr early -0.72.
O=C(NC1CCCc2ccccc21)c1ccc(-c2nccc(Oc3ccccc3)n2)cc1 (stereo unspecified) was read as Anaer choline gr inactive and Anaer choline gr early -0.34.
`Cc1[nH]c(C)c(S(=O)(=O)NCc2cccs2)c1-c1nnc(C2CCC2)o1` gave Anaer choline gr inactive and Anaer choline gr early -0.61.
O=C(CSc1nc(-c2ccccc2)c2cc(F)ccc2n1)N1CCCCC1 was read as Anaer choline gr inactive and Anaer choline gr early -0.52.
COc1ccc2c(c1)NC1(CCN(C(=O)NCC(C)C)CC1)c1cccn1-2 was read as Anaer choline gr inactive and Anaer choline gr early -1.1.
Cc1ccccc1OCC(=O)Nc1ccccc1SCc1nnc(-c2ccccc2)o1 was read as Anaer choline gr inactive and Anaer choline gr early 1.2.
Screening CC1CCN(C(=O)c2ccc3c(=O)n4c(nc3c2)CCCC4)CC1 returned Anaer choline gr inactive and Anaer choline gr early 0.23.
Screening Cc1ccc(C)c(NC(=O)N2CCCC2c2c(C)noc2C)c1 (stereo unspecified) returned Anaer choline gr inactive and Anaer choline gr early 0.19.
Cc1ccccc1-c1cc2n(C)c(C)c(CCC(=O)NCc3ccc4c(c3)OCO4)c(=O)n2n1 was read as Anaer choline gr inactive and Anaer choline gr early 0.23.
For O=c1c2sccc2n2c(SCc3cccc(Cl)c3)nnc2n1CC1CCCO1 (stereo unspecified) the results were Anaer choline gr inactive and Anaer choline gr early 0.87.
Screening FC(F)(F)c1nnc2sc(-c3cc4ccccc4[nH]3)nn12 returned Anaer choline gr inactive and Anaer choline gr early -1.7.
CCN(CC)CCNC(=O)c1ccc(N)cc1 was read as Anaer choline gr inactive and Anaer choline gr early 0.69&0.31&0.83&0.58&0.03.
`CCC1Cn2c(C(=O)N3CCN(c4ncccn4)CC3)cc3cccc(c32)O1` (stereo unspecified) gave Anaer choline gr inactive and Anaer choline gr early -0.02.
For Cc1ccc(C(=O)NCc2ccc(-c3nn4cnnc4s3)cc2)cc1 the results were Anaer choline gr inactive and Anaer choline gr early 1.9.

Compounds listed so far with a CF3 group:
Screening O=C(NCCn1c(C(F)(F)F)nc2cccnc21)Nc1ccc2c(c1)OCCO2 returned Anaer choline gr inactive and Anaer choline gr early -0.81.
Screening FC(F)(F)c1nnc2sc(-c3cc4ccccc4[nH]3)nn12 returned Anaer choline gr inactive and Anaer choline gr early -1.7.

(cont.)
COc1ccc(NC(=O)C2CCN(c3c(NC(C)=O)c(C)nn3-c3ccccc3)CC2)cc1 was read as Anaer choline gr inactive and Anaer choline gr early 0.52.
Screening O=C(O)CCC/C=C/C[C@@H]1[C@@H](/C=C/[C@@H](O)COc2cccc(C(F)(F)F)c2)[C@H](O)C[C@@H]1O returned Anaer choline gr inactive and Anaer choline gr early 1.4.
Screening Cc1nc(N(C)C)cc(N2CCN(C(=O)Nc3ccc(F)cc3)CC2)n1 returned Anaer choline gr inactive and Anaer choline gr early -0.28.
O=C(c1csc(S(=O)(=O)Nc2cccnc2)c1)N1CCCC1 was read as Anaer choline gr inactive and Anaer choline gr early -0.87.
Screening O=C(Nc1ccccc1Cl)N1CCC(n2cnc3cccnc32)CC1 returned Anaer choline gr inactive and Anaer choline gr early -1.6.
Screening COc1ccc(OC)c(NC(=O)N2CCN(c3nnc(C)c4c(C)n(-c5ccccc5)nc34)CC2)c1 returned Anaer choline gr inactive and Anaer choline gr early -0.31.
Screening Cc1ccc(CNS(=O)(=O)c2c(C)[nH]c(C)c2-c2nnc(C3CCC3)o2)o1 returned Anaer choline gr inactive and Anaer choline gr early 0.15.
Screening O=C(NCc1ccc(Br)cc1)C1CCCN(c2ncc(-c3ccccc3)cn2)C1 (stereo unspecified) returned Anaer choline gr inactive and Anaer choline gr early -1.8.

For reference, some entries already given:
COc1ccc(NC(=O)C2CCN(c3c(NC(C)=O)c(C)nn3-c3ccccc3)CC2)cc1 was read as Anaer choline gr inactive and Anaer choline gr early 0.52.
Screening O=C(O)CCC/C=C/C[C@@H]1[C@@H](/C=C/[C@@H](O)COc2cccc(C(F)(F)F)c2)[C@H](O)C[C@@H]1O returned Anaer choline gr inactive and Anaer choline gr early 1.4.
Screening Cc1nc(N(C)C)cc(N2CCN(C(=O)Nc3ccc(F)cc3)CC2)n1 returned Anaer choline gr inactive and Anaer choline gr early -0.28.
O=C(c1csc(S(=O)(=O)Nc2cccnc2)c1)N1CCCC1 was read as Anaer choline gr inactive and Anaer choline gr early -0.87.
Screening O=C(Nc1ccccc1Cl)N1CCC(n2cnc3cccnc32)CC1 returned Anaer choline gr inactive and Anaer choline gr early -1.6.
Screening COc1ccc(OC)c(NC(=O)N2CCN(c3nnc(C)c4c(C)n(-c5ccccc5)nc34)CC2)c1 returned Anaer choline gr inactive and Anaer choline gr early -0.31.
Screening Cc1ccc(CNS(=O)(=O)c2c(C)[nH]c(C)c2-c2nnc(C3CCC3)o2)o1 returned Anaer choline gr inactive and Anaer choline gr early 0.15.

Screens as filed in PubChem BioAssay.
